TRPML1 agonist: qHTS for Agonists of the Human Mucolipin Transient Receptor Potential 1 (TRPML1) | 410,000 tested, 0.12% active | AID 624414, 2012 | activation, % (concentration not given with the values) | TRPML1-expressing cells, Ca2+ dye fluorescence, FDSS; host cell line not named in the record; reference of the full effect not given here; in the data active = activation above about 50%; inconclusive = about 30% to 50%; inactive = below about 30%; note: 0% is about no effect; the text of the record puts the active cut at 80%
Target sequence (Q9GZU1 whole entry, looked up): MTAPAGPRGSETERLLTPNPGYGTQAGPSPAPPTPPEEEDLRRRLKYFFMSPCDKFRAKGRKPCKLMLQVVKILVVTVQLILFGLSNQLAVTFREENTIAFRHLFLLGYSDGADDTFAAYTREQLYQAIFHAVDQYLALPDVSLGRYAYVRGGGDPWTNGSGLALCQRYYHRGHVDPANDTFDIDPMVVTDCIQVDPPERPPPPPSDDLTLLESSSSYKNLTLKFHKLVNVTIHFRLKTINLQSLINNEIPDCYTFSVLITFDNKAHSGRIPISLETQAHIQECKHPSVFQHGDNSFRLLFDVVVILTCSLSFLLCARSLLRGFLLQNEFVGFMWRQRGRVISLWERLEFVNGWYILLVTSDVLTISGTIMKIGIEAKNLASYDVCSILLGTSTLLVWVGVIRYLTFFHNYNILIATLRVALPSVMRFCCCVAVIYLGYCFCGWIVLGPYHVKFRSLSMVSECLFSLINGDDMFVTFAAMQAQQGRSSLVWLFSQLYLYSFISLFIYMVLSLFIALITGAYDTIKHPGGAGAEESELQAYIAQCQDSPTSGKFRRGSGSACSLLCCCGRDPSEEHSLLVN
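In this qHTS format, compounds were pin-transferred onto Ca8-dye-loaded TRPML1-DL cells induced with Tet overnight, and intracellular Ca2+ fluorescence was recorded kinetically for 110 s after a 10 s baseline. A subsequent 4uM final 54-4 (EC80) addition followed by a second 110 s read served as the antagonist phase.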
Six1-Eya2 blk: qHTS Assay for Inhibitors of the Six1/Eya2 Interaction; 360,000 tested, 0.56% active; activity change, % (no concentration beside the values); AID 651725, 2012; Homeobox protein SIX1 (Homo sapiens) + Protein phosphatase EYA2 (Homo sapiens), …; AlphaScreen GST-Six1/His-Eya2 binding, biochemical; active compounds read low; control for the full effect not named in the record; in the data active = activity change below about -65%; inconclusive = about -30% to -65%; inactive = above about -30%; note: % is set by controls: 0 for no effect and ±100 for the full control effect
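AlphaScreen with GST-Six1 and His-Eya2 (5X mix: 250 nM and 500 nM), glutathione donor and nickel acceptor beads; buffer 50 mM Tris pH 8.0, 300 mM NaCl, 1 mM TCEP; 1 h at 37 C in the dark.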
D2 agonist: Beta-Arrestin HTS for Positive Allosteric Modulators of the Human D2 Dopamine Receptor: Agonists. D(2) dopamine receptor (Homo sapiens), P14416. DiscoveRx PathHunter D2 beta-arrestin, luminescence, 90 min; 100% = 57 uM dopamine signal. activation, % (no concentration beside the values). 360,000 tested, 0.084% active. AID 624465, 2012; in the data active = activation above about 40%; inconclusive = about 15% to 40%; inactive = below about 15%; note: compound concentration not given in the record; the text of the record calls up to 30% inactive
Target sequence (P14416 whole entry, looked up): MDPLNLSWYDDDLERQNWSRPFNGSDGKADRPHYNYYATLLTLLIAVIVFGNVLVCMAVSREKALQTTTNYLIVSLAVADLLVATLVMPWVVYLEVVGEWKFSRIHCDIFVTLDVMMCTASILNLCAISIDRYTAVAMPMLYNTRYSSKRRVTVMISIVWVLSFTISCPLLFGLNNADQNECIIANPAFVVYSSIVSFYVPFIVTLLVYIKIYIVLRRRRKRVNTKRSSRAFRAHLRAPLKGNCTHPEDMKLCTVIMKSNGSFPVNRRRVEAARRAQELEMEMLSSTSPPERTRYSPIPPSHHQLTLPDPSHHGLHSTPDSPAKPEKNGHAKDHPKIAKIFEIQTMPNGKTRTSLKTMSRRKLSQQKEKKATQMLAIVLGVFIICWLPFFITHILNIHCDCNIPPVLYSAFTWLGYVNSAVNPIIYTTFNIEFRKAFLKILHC
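DiscoveRx PathHunter D2 beta-arrestin cells (2,100/well) attached overnight, then compound-stimulated 90 min at 37 C in HBSS/10 mM HEPES/0.1% Tween-20 buffer; beta-galactosidase complementation read by luminescence after 1 h at ambient temperature. Dopamine 57 uM final (EC100) as control.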
CtBP-E1A inh: qHTS Assay for Inhibitors of the CtBP/E1A Interaction; CtBP / adenovirus E1A interaction (AlphaScreen); AlphaScreen GST-E1A/His-CtBP binding, 1536-well; active compounds read low; control for the full effect not named in the record; activity change, % (no concentration beside the values); 340,000 tested, 0.49% active; AID 651724, 2012; in the data active means activity change below about -65%; inconclusive means about -30% to -65%; inactive means above about -30%; note: % is set by controls: 0 for no effect and ±100 for the full control effect
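Steps: dispense buffer (Tris pH 8.0, NaCl 300 mM, TCEP 1 mM, BSA, Tween 20); add 5X protein mix (GST-E1A, His-CtBP, 125 nM each); pin 23 nL compound; 2 h at 37 °C, dark; add 5X beads (50 ug/mL); 1 h; read.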
D2 potentiator: Beta-Arrestin HTS for Positive Allosteric Modulators of the Human D2 Dopamine Receptor: Potentiators | DiscoveRx D2 beta-arrestin cells, luminescence, 90 min; 100% = 57 uM dopamine signal | 360,000 tested, 0.23% active | potentiation, % (test concentration not listed) | AID 624464, 2012; active = potentiation of 50% or more; inconclusive = 30% to 50%; inactive = 30% or less;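 note: compound concentration not given in the record; tested on top of an EC20 dose of dopamine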
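D2 cells co-treated with compound plus 50 nM dopamine (EC20) for 90 min at 37 deg C to detect potentiation. Beta-arrestin recruitment was read as enzyme-fragment luminescence after 1 h at ambient temperature. Full response was set by 57 uM dopamine.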
PINK1 modulator: A Quantitative High throughput Screen to Identify Chemical Modulators of PINK1 Expression; PINK1 immunofluorescence, high-content cytometry, 24 h; Potency, µM (highest dose often 76.6 µM), without a hit: at the top dose activation (PINK1 increase), actives largely listed as activators; 410,000 tested, 0.2% active; active = well fitted activation curve with a large enough effect; inconclusive = small, poorly fitted or top-dose-only effect; inactive = flat fitted curve, though single readings scatter; cell line not stated here;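 note: potency is the fitted concentration of half-maximal effect; % of control where 0% means no effect; nearly all actives have a fitted effect of over 65% in size; a mitochondrial uncoupler was the plate control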
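PINK1 protein level read as immunofluorescence by microplate cytometer in a fixed, stained stable cell line after 24 h exposure to five compound concentrations, with CCCP as control.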
* marks the source's active call; other numbers are inactive results; ? = inconclusive; nt = no result given; & = joins results of further samples; [ ] = remark or other dose.

SMILES | TRPML1 agonist | Six1-Eya2 blk | D2 agonist | CtBP-E1A inh | D2 potentiator | PINK1 modulator
CSc1ccccc1OCc1cc(C(=O)N2CCN(Cc3nccn3C)CC2)no1 | 0.3 | -8.4 | -3.2 | -2.5 | -25.1 | 2.5%
Cc1onc(-c2ccccc2Cl)c1C(=O)c1ccccc1 | 2.9 | 11.7 | -3.0 | 13.5 | -2.1 | -1.0%
Cc1ccc(N2C(=O)c3ccc(C(=O)Nc4cccnc4)cc3C2=O)c(C)c1 | 1.7 | -1.2 | -3.6 | 2.8 | -5.5 | 4.3%
N#Cc1ccc(OCC(=O)N2CCc3ccccc32)cc1 | 0.0 | 12.4 | 1.6 | 3.4 | 4.3 | -1.1%
CN(C)c1ccc(C=Cc2ccnc3c(O)cccc23)cc1 | 14.0 | -13.1 | 1.1 | -29.1 | -12.6 | 16.8%
COc1ccc2[nH]c(=O)c(CN(Cc3cccnc3)C(=S)NCC3CCCO3)cc2c1 (stereo not drawn) | 0.0 | -5.0 | -5.6 | -20.9 | -8.1 | 0.4%
CCc1c(C)nc(SCC(=O)CC(=O)OC(C)C)c(C#N)c1C | 51.3* | 5.0 | -4.2 | 7.9 | -13.6 | 1.5%
O=C(O)c1ccc(CNCc2cccc(Oc3ccccc3)c2)cc1 | 0.8 | 3.9 | -2.6 | nt | -4.8 | 0.5%
Cc1cc(=O)oc2c(C)c(OCC(=O)N3CCN(C(=O)C4COc5ccccc5O4)CC3)ccc12 (stereo not drawn) | -1.0 | -18.6 | -0.4 | nt | -2.4 | -1.5%
COCCNC(=O)CSc1nnc(-c2ccccc2F)n1Cc1ccccc1 | 2.1 | 9.9 | -5.5 | -5.8 | -9.1 | 1.4%
O=C1CCCCC1Nc1ccc2ccccc2c1 (stereo not drawn) | -0.4 | -19.5 | -8.4 | 0.0 | -8.0 | 0.4%
O=C(O)c1ccc(NCc2cccnc2)c([N+](=O)[O-])c1 | 0.3 | 17.8 | -2.1 | nt | -20.6 | -1.4%
COCCCOc1ccnc(CS(=O)c2nc3ccccc3[nH]2)c1C (stereo not drawn) | 0.2 | -6.6 | -7.1 | -5.7 | -11.8 | -0.1%
CCC(=O)c1ccc(N2CCN(C(=O)c3cccs3)CC2)c(F)c1 | 1.1 | 2.3 | -3.8 | -7.7 | 0.1 | -0.3%
Cc1nc2ccc(C(=O)NC(C)(C)C)cn2c1N(C)C(=O)CCc1ccccc1 | -1.0 | -0.6 | 2.6 | 6.5 | -2.0 | 0.1%
CCOc1cccc(-c2nnc3sc(-c4cc(OC)c(OC)c(OC)c4)nn23)c1 | 0.1 | 1.8 | -1.7 | -3.4 | 6.6 | 2.5%
O=C(CSc1n[nH]c(-c2ccco2)n1)Nc1ccc(F)cc1 | 0.1 | 4.9 | -3.2 | 5.5 | -4.9 | 1.2%
Cc1ccc(C(=O)/C=C/c2ccc3c(c2)OCO3)o1 | 0.3 | -1.2 | -2.5 | -0.6 | -19.1 | 2.8%[38.3 µM]
CC1CCN(C(=O)CC(NC(=O)c2ccccc2Cl)c2ccccc2)CC1 (stereo not drawn) | -0.1 | 12.5 | -1.9 | -6.0 | 5.0 | -0.5%
O=C(C1CC1)N(CCN(Cc1ccccc1)C(=O)C1CC1)Cc1ccccc1 | -1.0 | 0.8 | -0.7 | -3.5 | -6.0 | -1.3%

Taken from above.
Result of O=C(O)c1ccc(NCc2cccnc2)c([N+](=O)[O-])c1 under PINK1 modulator: -1.4%
Result of O=C(O)c1ccc(CNCc2cccc(Oc3ccccc3)c2)cc1 under D2 potentiator: -4.8
Result of CCC(=O)c1ccc(N2CCN(C(=O)c3cccs3)CC2)c(F)c1 under CtBP-E1A inh: -7.7
Result of CCc1c(C)nc(SCC(=O)CC(=O)OC(C)C)c(C#N)c1C under TRPML1 agonist: 51.3*
Result of CN(C)c1ccc(C=Cc2ccnc3c(O)cccc23)cc1 under D2 potentiator: -12.6

Following part:
SMILES | TRPML1 agonist | Six1-Eya2 blk | D2 agonist | CtBP-E1A inh | D2 potentiator | PINK1 modulator
CC(C)Oc1cccc(C(=O)Nc2nnc([C@H]3C[C@H](O)[C@@H](CO)O3)s2)c1 | 0.1 | 1.5 | -1.4 | 1.4 | -8.7 | -1.2%
CC(=O)Nc1ccc(OCC(O)Cn2c(C(C)C)nc3ccccc32)cc1 (stereo not drawn) | 0.3 | 0.5 | -7.3 | 0.4 | -5.5 | -0.7%
CSc1cccc(NC(=O)C2CCCN(S(=O)(=O)c3cccs3)C2)c1 (stereo not drawn) | 1.2 | -6.4 | 0.8 | -3.3 | -8.9 | -2.2%
Cc1sc2ncn(CC(=O)NCCCC(=O)N(C)Cc3ccccc3)c(=O)c2c1C | -1.7 | -2.8 | -0.6 | 6.1 | -2.3 | 11.2%
COc1ccc(CCNC(=O)Nc2ccccc2[N+](=O)[O-])cc1 | -0.8 | -0.8 | -0.8 | -1.4 | -5.9 | 2.5%
OCC[C@@H]1C[C@@H](O)[C@H](O)[C@]2(OCCc3ccccc32)O1 | -0.6 | 2.8 | -3.8 | 8.7 | -9.8 | 0.4%
Cc1nc(C)c(CCNC(=O)c2cccc(Cl)c2)s1 | 1.0 | 0.9 | 1.9 | -5.5 | -6.1 | 1.9%
CC(C)(C)CC(C)(C)NCC(O)COc1c(F)cc(Br)cc1F (stereo not drawn) | 3.6 | 15.5 | -1.4 | -4.3 | -46.7 | -4.3%
Cc1cc(C)c(C)c(S(=O)(=O)NCc2ccc(C(=O)N3CCCC3)cc2)c1C | 1.0 | 1.7 | 0.8 | -29.9 | 8.5 | 0.3%
Cc1oc2cc3oc(=O)c(CCC(=O)NCCCN4CCCC4=O)c(C)c3cc2c1C | nt | -5.0 | -3.5 | -12.2 | -35.4 | 1.7%
COc1ccc(CN2CC(=O)N(c3ccc(C)cc3)C2=S)cc1OC | 0.0 | -18.7 | 4.9 | 0.0 | 3.4 | 3.7%
Cn1c(COc2ccc(Cl)cc2Cl)nnc1SCC(=O)NCC1CCCO1 (stereo not drawn) | -0.9 | 4.0 | -4.7 | 10.9 | -4.3 | 1.6%
Cn1c(CCN2CCCC2)nc2cc(NS(=O)(=O)c3ccc(Cl)cc3)ccc21 | 7.6 | -0.4 | 1.2 | 3.4 | -28.1 | 0.9%
O=[N+]([O-])c1ccc(CCn2ccnc2)cc1 | -0.1 | 0.4 | -4.2 | nt | 1.9 | 0.5%
CC1(C)Cc2noc(N)c2C(C)(C)N1OC(=O)c1scc2c1OCCO2 | -0.6 | 5.0 | 1.8 | 3.6 | 3.4 | -0.4%
CCc1ccc(OCC(=O)NC(C)C)cc1 | 0.2 | 3.2 | 2.0 | 11.1 | -2.0 | 0.2%
O=C(COC(=O)c1ccc(Br)cc1)Nc1cccnc1Cl | 0.6 | 3.3 | -2.3 | 1.2 | -1.7 | -0.6%
OC(CNC1CCCCC1)CON=C1CCSc2c(Cl)cccc21 (stereo not drawn) | 0.1 | -8.1 | -2.6 | -6.2 | -20.1 | -2.1%
O=Cc1ccc(-c2cccc([N+](=O)[O-])c2)o1 | -0.6 | -18.9 | -6.6 | 3.2 | -5.3 | 1.2%
CCOC(=O)c1cn(CC(=O)Nc2ccc3c(c2)OCCO3)nn1 | -0.8 | 0.5 | -0.6 | 5.8 | -6.1 | 6.9%[38.3 µM]

Random excerpt: two entries already listed, in no set order.
SMILES | TRPML1 agonist | Six1-Eya2 blk | D2 agonist | CtBP-E1A inh | D2 potentiator | PINK1 modulator
CCc1ccc(OCC(=O)NC(C)C)cc1 | 0.2 | 3.2 | 2.0 | 11.1 | -2.0 | 0.2%
O=[N+]([O-])c1ccc(CCn2ccnc2)cc1 | -0.1 | 0.4 | -4.2 | nt | 1.9 | 0.5%

Next section.
SMILES | TRPML1 agonist | Six1-Eya2 blk | D2 agonist | CtBP-E1A inh | D2 potentiator | PINK1 modulator
O=C(NCc1ccncc1)[C@@H]1CCCN1C(=O)[C@H]1CCCN1C(=O)c1cccs1 | -0.3 | 4.5 | nt | 7.6 | nt | 1.2%
Cc1cccc(CC(=O)N2CCC(N3CCC(C(=O)N4CCOCC4)CC3)CC2)c1 | -0.4 | 6.7 | -2.5 | 4.8 | -13.2 | 1.4%
O=C(CSCc1ccc(F)cc1)N1CCN(c2ccccc2)CC1 | 1.0&0.6 | 9.2 | -1.3 | 37.9 | -9.9 | 0.6%
O=C1C2C3C=CC(C3)C2C(=O)N1c1ccncc1 (stereo not drawn) | 0.6 | 5.7 | 0.5 | 9.3 | 10.1 | 1.9%
COC(=O)c1ccc(NC(=O)c2ccc(CN3CCOCC3)cc2)cc1 | 0.6 | -6.0 | -1.4 | -12.4 | -12.2 | 1.8%[38.3 µM]
NC(=O)c1cc(Cl)ccc1OCC(=O)NC1CC1 | -0.5 | -0.8 | 0.6 | 7.6 | -7.0 | 1.0%
CO/N=C/NC(=O)c1c(OC)ccnc1Oc1cccc(C(F)(F)F)c1 | 0.3 | -5.5 | -3.8 | -22.5 | 7.6 | nt
Cn1cc(C(F)(F)F)nc1-c1ccc(OCC(O)CNCCOc2ccc(O)c(C(N)=O)c2)cc1 (stereo not drawn) | -0.2 | -1.2 | ? | -9.6 | 22.5 | 0.5%
O=C1CC(N2CCN(c3nc4ccccc4s3)CC2)C(=O)N1c1ccc(F)cc1 (stereo not drawn) | 0.0 | -1.4 | -1.9 | -0.5 | -13.4 | -0.9%
Cc1cc(C)n2c(nc3ccccc32)c1C(=O)NN | 0.7 | 2.1 | -2.3 | -0.7 | -7.9 | 0.8%
COc1ccc(/C(C)=N/NC(=O)c2cccc(S(=O)(=O)N3CCCC3)c2)c(O)c1 | -0.5 | ? | -1.7 | ? | -5.5 | -0.9%
COc1ccc(-c2cc3c(=O)n(CC(=O)NCCCN4CCC(Cc5ccccc5)CC4)ncn3n2)cc1 | -0.1 | 0.0 | -5.4 | 0.0 | -56.4 | 0.7%
Cn1c(NC(=O)c2cccnc2)nc2ccccc21 | -1.0 | -10.2 | -2.0 | -1.9 | 1.8 | -0.7%
COc1ccc(Nc2ccc(OC)cc2)cc1 | 1.0 | ? | 12.6 | ? | 1.4 | 0.8%
CCn1cc(C(=O)N2CCCC(N3CCN(c4cccc(C(F)(F)F)c4)CC3)C2)cn1 (stereo not drawn) | 0.9 | 0.0 | 3.9 | nt | -12.3 | -0.7%
CN1CCN(NC(=O)Nc2ccc([N+](=O)[O-])cc2)CC1 | 0.0 | 4.3 | 1.4 | 5.2 | 10.8 | 0.5%
Cc1ccc2c(c1)c(=O)c1c3n2CCN(C(=O)CCl)C3CC1 (stereo not drawn) | -0.1 | -22.3 | 6.2 | -11.6 | 3.6 | -0.9%
CCOC(=O)/C(C#N)=C\c1ccc(OC)c(OC)c1 | -0.1 | 5.1 | -0.4 | 1.6 | -8.6 | 4.0%
COc1ccc(C)cc1NC(=O)CN1C(=O)c2cccc3cccc1c23 | -0.4 | -1.2 | -1.3 | 6.3 | -12.5 | 20.5%

Source: PubChem (National Center for Advancing Translational Sciences (NCATS))
